rRNA inh HTS: inhibitors of bacterial rRNA selective over humanized ribosomes. E. coli WT GFP vs humanized-ribosome RFP mutants, fluorescence, 24 h; hits give low values; DMSO median 0, no signal -100. GFP signal change (wild-type ribosome), % (test concentration not listed). 1.6% of 350,000 active. AID 720706;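 active = significant combined selectivity score with lowered wild-type GFP, culture density cut under 30%, mutant RFP and density less affected; inactive = any of these conditions unmet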; also: one replicate is shown; some compounds called inactive have numbers as strong as hits
Beta2AR agonist: activates human beta-2 adrenergic receptor causing internalization; AID 504454; response, % (no concentration beside the values); 0.43% of 340,000 active; Am2.2-beta2AR cells, FAP receptor internalization, flow cytometry; reference of the scale not given here;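 active = response above a set limit, near 3 SD of response in nonfluorescent compounds, cut at about 42% in these data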;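 also: stock transfer was 100 nL into about 11 µL; a reference agonist was the positive control; negative values mostly stem from fluorescent compounds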
Target sequence (P07550 whole entry, looked up): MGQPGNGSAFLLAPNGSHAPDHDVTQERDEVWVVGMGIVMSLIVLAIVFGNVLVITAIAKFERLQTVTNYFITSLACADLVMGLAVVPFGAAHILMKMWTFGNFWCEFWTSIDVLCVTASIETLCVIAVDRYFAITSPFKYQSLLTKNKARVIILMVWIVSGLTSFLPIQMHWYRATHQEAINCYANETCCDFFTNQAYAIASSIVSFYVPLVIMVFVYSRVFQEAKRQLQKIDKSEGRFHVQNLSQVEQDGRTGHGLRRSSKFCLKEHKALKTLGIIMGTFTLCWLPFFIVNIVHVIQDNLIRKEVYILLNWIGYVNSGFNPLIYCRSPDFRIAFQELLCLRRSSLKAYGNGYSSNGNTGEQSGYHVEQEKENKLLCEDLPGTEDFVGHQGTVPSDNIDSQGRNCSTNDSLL
T cruzi repl: blocks replication of Trypanosoma cruzi. inhibition, % (concentration not given with the values). 1.4% of 300,000 active. AID 1885. T. cruzi beta-gal in NIH3T3, luminescence, 90 h;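 active = mean inhibition across valid replicates above about 55%, limit read from the data; inconclusive = mean below that limit but half or more replicates reach it; inactive = mean below it, under half of replicates reach it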;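 also: signal also drops with host cell toxicity which is not excluded here; 0% = plate median of DMSO wells and 100% = zero luminescence signal; higher percent means less beta-gal luminescence so fewer parasites; stock transfer was 50 nL into about 50 µL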
Bfl-1 A1 inh: inhibitors of the anti-apoptotic protein A1, read as caspase activation; AID 2462; MEF A1-2A-BIM cells, Caspase-Glo 3/7 luminescence, 3 h; percent of clofoctol response, vehicle zero; 0.066% of 330,000 active; caspase activation, % (no concentration beside the values);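 active = over half of replicate activation scores above 10%, or exactly half above 10 with the replicate mean above 10; inconclusive = replicate mean below 10 yet half the replicates above 10; inactive = over half of replicates below 10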;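 also: wells of about 30 µL received 50 nL stock; many hits fall short of the cut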
Beta apoptosis: blocks beta cell apoptosis; INS-1E cytokine-induced death, ATP luminescence, 48 h; percent of positive-control rescue, neutral wells zero; protection from apoptosis, % (test concentration not listed); 0.8% of 300,000 active;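 active = all replicates at 75% or more, or half of them and the mean; inconclusive = half reach 75% but not the mean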;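 also: 0% = cytokine-treated negative control wells and 100% = positive control rescue; higher means more ATP so stronger rescue from cytokine killing; wells of about 40 µL received 100 nL stock; the first replicate is given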
ALR H2O2 inh: human ALR oxidase inhibition via reduced H2O2. 3.8% of 290,000 active. purified ALR, DTT oxidation, H2O2 HRP-luminol luminescence. AID 485317. inhibition, % (test concentration not listed). P55789;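 active = mean and each replicate at 75% or more; inconclusive = only one of the two met; inactive = neither met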;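 also: stock transfer was 7.5 nL into about 7.5 µL; 0% = neutral wells and 100% = wells with inactivated enzyme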
Target sequence (P55789 whole entry, looked up): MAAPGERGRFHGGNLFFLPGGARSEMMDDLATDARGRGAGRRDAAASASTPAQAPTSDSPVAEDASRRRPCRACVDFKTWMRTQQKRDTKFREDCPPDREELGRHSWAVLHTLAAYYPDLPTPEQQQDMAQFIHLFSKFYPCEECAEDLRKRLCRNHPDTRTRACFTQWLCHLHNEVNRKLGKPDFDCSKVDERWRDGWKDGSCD
LANA-H2A inh: blocks KSHV LANA binding to histone H2A/H2B | Q9QR71 | cell-free LANA-H2A/H2B peptide, fluorescence polarization | inhibition, % (no concentration beside the values) | 0.6% of 320,000 active | AID 2629; in the data active = inhibition mostly above about 10%, no sharp cut-off; inactive = mostly below about 6.7%;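 also: stock transfer was 7.5 nL into about 10 µL; 0% = median of vehicle wells and 100% = median of positive control wells; one replicate is shown; the record names a cut of 25% in any replicate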
Calb FLC: C. albicans growth modulation with fluconazole. C. albicans CaCi-2 (fluconazole-resistant clinical isolate) + fluconazole, Alamar Blue growth, 48 h. growth inhibition, % (concentration not given with the values). 0.57% of 300,000 active. AID 1979;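 active = most replicates above 75%; inconclusive = exactly half above 75%; inactive = most below 75%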;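 also: all wells also contain fluconazole at 8 µg/ml as a sub-toxic cotreatment; 0% = median of DMSO wells and 100% = median of geldanamycin control wells; wells of about 8 µL received 7.5 nL stock; the first replicate is given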
rRNA inh HTS OD600: also measured in rRNA inh HTS; calls as there; OD600 change, %; measured here: OD600 growth;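 optical density of the mix in the first replicate; 0 = DMSO median and -100 = no signal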
rRNA inh HTS RFP: further read-out of rRNA inh HTS, marked with its call; RFP signal change, %; measured here: RFP humanized mutant strains;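 first replicate; 0 = DMSO median and -100 = no signal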
Active calls of the source: *; u = inconclusive; x = not tested or not shown.

entry	canonical_smiles	rRNA inh HTS	rRNA inh HTS OD600	rRNA inh HTS RFP	Beta2AR agonist	T cruzi repl
1	Cc1[nH]c2ccccc2c1/C=C/c1nc2ccccc2c(=O)n1-c1cccc([N+](=O)[O-])c1	x	x	x	-7	21
2	CCOC(=O)c1c(NC(=O)COC(=O)c2cnccn2)sc(C)c1C	-3	0	-1.2	4	x
3	CC(=C/C(=O)O)/C(=C\c1ccc(Br)o1)C(=O)O	8	-1	-2.3	-1	2
4	O=C(COc1ccccc1Cl)NC(=S)Nc1ccc(CN2CCOCC2)cc1	10	1	-1.9	-9	-9
5	CCOC(=O)C1CCCN(c2cc(C)nc3cc(-c4ccc(Cl)cc4)nn23)C1 (centres undefined)	x	x	x	2	-1
6	C=CC[C@@H](CC(=O)NCCO)C(=O)NCCOC(=O)[C@@H](CC=C)Cc1ccc(F)cc1	2	-2	-1.2	1	x
7	CC1Sc2ccc(C(=O)Nc3ccccc3OC(F)F)cc2NC1=O (centres undefined)	-20*	-4.3*	6.4*	2	-4
8	CCCN1C=CC(=CC=C(C#N)C#N)C=C1	106	8	40	-2	3
9	Cc1c(CN2CCC(CO)(Cc3cccc(C(F)(F)F)c3)CC2)c2ccccc2n1C	-58	-82	-19	46*	56*
10	COc1ccccc1C(=O)NC(CCSC)C(=O)NCc1ccccn1 (centres undefined)	10	13	2.7	-5	3
11	CCC(Oc1ccccc1)C(=O)Nc1ccc(-c2nnc(-c3ccco3)o2)cc1 (centres undefined)	x	x	x	-3	31
12	CC(C)(CO)N1CCN(C(=S)Nc2ccccc2)CC1	7	5	-1.7	-5	-6

entry	Bfl-1 A1 inh	Beta apoptosis	ALR H2O2 inh	LANA-H2A inh	Calb FLC
1	0.3	3	-6	-5.9	11
2	-0.4	1	52	1.1	x
3	-0.3	-1	0	0.3	-10
4	0.3	x	0	-3.8	35
5	-1.0	-4	x	-2.3	-5
6	1.1	-4	2	x	x
7	-1.3	1	0	-3.0	-4
8	0.4	11	99*	-28	5
9	0.8	7	-2	0.4	1
10	0.6	-1	-2	-0.9	4
11	0.2	-8	1	-1.4	-11
12	1.9	0	-1	-5.6	-1

Some of these compounds in order of their number in LANA-H2A inh, low to high:
entry	Compound	rRNA inh HTS	rRNA inh HTS OD600	rRNA inh HTS RFP	Beta2AR agonist	ALR H2O2 inh	LANA-H2A inh
8	CCCN1C=CC(=CC=C(C#N)C#N)C=C1	106	8	40	-2	99*	-28
5	CCOC(=O)C1CCCN(c2cc(C)nc3cc(-c4ccc(Cl)cc4)nn23)C1 (centres undefined)	x	x	x	2	x	-2.3
10	COc1ccccc1C(=O)NC(CCSC)C(=O)NCc1ccccn1 (centres undefined)	10	13	2.7	-5	-2	-0.9

(more compounds)
entry	canonical_smiles	rRNA inh HTS	rRNA inh HTS OD600	rRNA inh HTS RFP	Beta2AR agonist	T cruzi repl
13	Cc1cc(/C=C(\C#N)C(=O)Nc2ccccc2)c(C)n1-c1cccnc1	-9	-2	0.6	-6	-2
14	Cc1cc(C(=O)CCC(=O)NNC(=O)c2ccccc2O)c(C)s1	-6	-13	-3.2	13	0
15	Cn1c(N)c(S(=O)(=O)N2CCN(c3ccccc3F)CC2)c(=O)n(C)c1=O	12	20	0.3	2	0
16	CSc1ccccc1OCc1cc(C(=O)N2CCC(Oc3cccnc3)CC2)no1	-32	-35	-8.6	-5	4
17	COc1ccc(S(=O)(=O)N2CCc3ccccc32)cc1C(=O)Nc1cccnc1	2	-7	0.9	-7	33
18	COc1cccc(NC(=O)CNC(=O)Cn2cnc3sc(C)c(C)c3c2=O)c1	6	-2	2.5	5	23
19	COc1ccc(Nc2nc(-c3sc(C)nc3C)cs2)cc1	-22	-23	-1.7	-11	-17
20	CCn1nc(NS(=O)(=O)c2ccc(NC(C)=O)cc2)c2cc3ccccc3nc21	-53	-73	-13	53*	-6
21	CS(=O)(=O)NCc1csc(-c2ccccc2)n1	x	x	x	-3	-2
22	COc1ccc(S(=O)(=O)N2CCCCCC2)cc1C(=O)N(C)Cc1cccc(OC)c1OC	-12	-17	3.6	-1	17
23	CC(=O)N1CCc2cc(Br)cc(S(=O)(=O)CCC(=O)N3CCN(c4ccccn4)CC3)c21	-4	-3	-0.7	2	-9
24	O=C(CNc1cccc(S(=O)(=O)N2CCCC2)c1)Nc1ccc(F)cc1F	-3	-3	0.6	-6	4

entry	Bfl-1 A1 inh	Beta apoptosis	ALR H2O2 inh	LANA-H2A inh	Calb FLC
13	-1.1	3	-6	0.5	22
14	0.1	-4	8	0.6	x
15	-0.4	-2	-4	-1.1	0
16	-0.2	x	-18	1.0	-3
17	0.5	-4	1	1.5	6
18	-0.3	-2	-5	0.1	8
19	-0.7	36	17	0.2	-4
20	1.2	x	37	-2.9	-4
21	0.6	-11	-3	0.1	15
22	-0.2	2	-1	-0.5	-6
23	0.2	14	4	0.9	-3
24	0.4	-2	8	-6.0	4

New compounds follow.
entry	canonical_smiles	rRNA inh HTS	rRNA inh HTS OD600	rRNA inh HTS RFP	Beta2AR agonist	T cruzi repl
25	CCC(=O)NC1OC(CO)C(O)C(O)C1O (centres undefined)	x	x	x	1	-10
26	Cc1ccc(C2=Nc3ccc(Br)cc3C(c3ccncc3)=NN2)cc1	3	7	6.0	-4	u
27	O=C(Nc1ccc(C(=O)N2CCCC(CO)C2)cc1)c1ccc(Br)o1 (centres undefined)	6	16	1.6	11	x
28	O=C(Nc1cccc(S(=O)(=O)N2CCCC2)c1)c1ccc2c(=O)n3c(nc2c1)CCCCC3	x	x	x	15	7
29	CC1(C)Cc2nc3sc4c(=O)n(CC(N)=O)cnc4c3cc2CO1	x	x	x	-8	-8
30	COc1cc(C2C(C#N)=C(N)Oc3c2ccc2ccccc32)ccc1OCC(=O)Nc1ccccc1C (centres undefined)	x	x	x	-5	8
31	CN1CCN(c2nc3c(c(=O)[nH]c(=O)n3C)n2CCCSc2nnnn2-c2ccccc2)CC1	-4	-38	-4.4	-9	5
32	O=C(Nc1ccc2snnc2c1)N1CCOCC1	x	x	x	-3	u
33	COc1ccc2c(c1)[C@@H]1[C@H](CO2)[C@H](c2ccccc2)[C@]2(C)C(=O)Nc3ccc(C)cc3C(=O)N12	x	x	x	22	x
34	Cn1c(SCC(=O)NNC(=O)c2ccc(Cl)cc2)nnc1-c1cccnc1	20	21	3.0	-4	8
35	Cc1cccc(NC(=O)c2cc(S(=O)(=O)N3CCc4ccccc43)cn2C)c1C	-2	7	3.6	-8	8
36	Cc1cc(C(=O)N2CCN(C(c3ccccc3)c3ccccc3)CC2)on1	-7	-27	4.7	-8	7

entry	Bfl-1 A1 inh	Beta apoptosis	ALR H2O2 inh	LANA-H2A inh	Calb FLC
25	0.7	-1	-7	-2.9	3
26	-0.4	4	3	-7.6	-10
27	-0.7	-2	-5	-5.6	x
28	0.4	6	-17	3.0	1
29	0.4	-8	-1	5.5	-3
30	0.5	-9	-9	-1.2	12
31	0.6	-3	-1	2.9	10
32	-0.3	-2	77*	-0.5	1
33	0.1	-1	-12	0.8	x
34	0.4	-2	0	1.8	-19
35	0.3	0	1	0.9	-7
36	0.3	x	4	-0.2	15

(listing goes on)
entry	canonical_smiles	rRNA inh HTS	rRNA inh HTS OD600	rRNA inh HTS RFP	Beta2AR agonist	T cruzi repl
37	O=C(CCN1C(=O)c2ccccc2C1=O)N1CCOCC1	x	x	x	0	-16
38	O=S(=O)(c1cc(F)ccc1F)N1CCN(c2ccccn2)CC1	4	3	2.5	0	-7
39	COC(=O)c1cc(S(=O)(=O)N(C)Cc2ccco2)c[nH]1	27	10	3.0	-1	-22
40	c1ccc(-c2nnc(CN3CCN(c4ccccc4)CC3)o2)cc1	-2	-6	-1.5	-5	0
41	Cc1ccc(C)c(Nc2cc(C(=O)NCc3cccnc3)c3ccccc3n2)c1	-26*	-16*	3.6*	-10	1
42	CN1CC2([N+](=O)[O-])CC=C(OCCO)C([N+](=O)[O-])(C1)C2 (centres undefined)	9	12	-9.8	-3	-21
43	CCC(C)c1ccccc1NC(=S)Nc1cccnc1 (centres undefined)	x	x	x	-2	-8
44	Cn1c(=O)c2c(nc(N/N=C/c3cccs3)n2Cc2ccccc2)n(C)c1=O	-5	-1	1.7	-2	-4
45	N#Cc1nc(COc2ccc(Cl)cc2)oc1N1CCCCCC1	x	x	x	-17	x
46	O=C(C1CCC(Cn2c(=S)[nH]c3ccccc3c2=O)CC1)N1CCOCC1 (centres undefined)	x	x	x	1	-2
47	Cc1cc(-c2nn(-c3ccccc3F)cc2CN2CCCC(O)C2)c(C)s1 (centres undefined)	3	0	-5.3	-10	-8
48	COc1cc(C(C#N)N2CCC(c3ccccc3)=N2)ccc1O (centres undefined)	4	0	-4.0	-7	7
49	O=C(NCc1ccc2c(c1)OCO2)C1CC(=O)N(c2ccc(Cl)cc2)C1 (centres undefined)	2	16	2.4	-6	5
50	CCOC(=O)COn1c(=O)c(=O)n(OC)c2ccccc21	x	x	x	-1	-7
51	CCCn1nc(C(=O)N2CCN(c3ccccn3)CC2)c2ccccc2c1=O	-8	-7	1.4	-32	x

entry	Bfl-1 A1 inh	Beta apoptosis	ALR H2O2 inh	LANA-H2A inh	Calb FLC
37	0.0	-9	-16	0.7	x
38	-7.6	2	3	3.8	2
39	-1.1	-4	0	0.9	-3
40	0.3	-6	98*	4.6	1
41	0.8	-1	x	-3.9	-14
42	-0.2	-4	-2	0.0	113*
43	0.2	0	-4	-3.2	1
44	0.1	7	96*	3.7	u
45	-0.3	-5	x	-2.5	x
46	-0.5	-5	83*	-2.2	8
47	-0.2	-5	-6	-11	-2
48	-0.2	1	25	-2.5	-2
49	-0.2	-1	x	5.5	-21
50	1.1	-8	-6	-3.3	0
51	-0.5	-3	21	0.7	x

Assay outcomes: PubChem, several laboratories

The list is partial; rates above refer to the full screens.
